# Source: PubChem BioAssay
# hNpr1 antagonist: antagonists of human natriuretic peptide receptor Npr1; Potency, µM (top dose mostly 46.3 µM), for the others: top-dose activity change, negative = inhibition, most hits filed as inhibitors; HEK293 hNpr1 GloSensor cGMP, ANP-stimulated luminescence; hit rate 1.6% among 76,000; AID 1347048; active = well fitted inhibition curve with a large enough effect; inconclusive = small, poorly fitted or top-dose-only effect; inactive = no such curve, though single readings can be large or run the other way;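 further: nearly all actives have a fitted effect of over 60% in size; nearly all hits also lower the signal before the agonist is added; a reference antagonist and vehicle were the controls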
# Target sequence (P16066 whole entry, looked up): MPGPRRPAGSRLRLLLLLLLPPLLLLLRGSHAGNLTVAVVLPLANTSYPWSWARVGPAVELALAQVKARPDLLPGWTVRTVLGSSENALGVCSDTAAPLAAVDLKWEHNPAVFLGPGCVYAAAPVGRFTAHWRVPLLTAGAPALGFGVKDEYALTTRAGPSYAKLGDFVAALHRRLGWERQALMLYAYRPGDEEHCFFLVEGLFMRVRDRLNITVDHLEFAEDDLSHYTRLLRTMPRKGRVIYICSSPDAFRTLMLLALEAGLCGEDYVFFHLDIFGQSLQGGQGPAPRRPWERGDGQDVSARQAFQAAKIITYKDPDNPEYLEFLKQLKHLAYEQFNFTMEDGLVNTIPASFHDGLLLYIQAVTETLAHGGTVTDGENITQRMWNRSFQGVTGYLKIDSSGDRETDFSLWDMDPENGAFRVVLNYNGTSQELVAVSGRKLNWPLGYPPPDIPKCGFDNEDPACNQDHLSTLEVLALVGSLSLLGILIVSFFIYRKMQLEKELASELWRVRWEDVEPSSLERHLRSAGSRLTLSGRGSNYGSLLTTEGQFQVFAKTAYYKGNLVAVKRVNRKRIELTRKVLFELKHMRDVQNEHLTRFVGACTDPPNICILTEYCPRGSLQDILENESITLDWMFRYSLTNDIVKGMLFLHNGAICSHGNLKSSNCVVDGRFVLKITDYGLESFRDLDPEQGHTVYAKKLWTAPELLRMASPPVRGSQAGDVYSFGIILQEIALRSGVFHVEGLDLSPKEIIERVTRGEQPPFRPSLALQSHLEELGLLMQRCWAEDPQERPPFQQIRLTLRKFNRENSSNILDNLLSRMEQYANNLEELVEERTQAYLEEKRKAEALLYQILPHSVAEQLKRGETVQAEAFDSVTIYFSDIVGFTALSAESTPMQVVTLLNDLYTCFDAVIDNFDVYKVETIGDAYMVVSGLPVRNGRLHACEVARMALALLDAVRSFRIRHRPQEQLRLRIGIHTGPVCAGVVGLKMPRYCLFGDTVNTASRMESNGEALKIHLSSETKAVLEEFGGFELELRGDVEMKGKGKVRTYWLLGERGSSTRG
#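 Compound pre-incubated 30 min at room temperature on GloSensor-loaded HEK293 cells stably carrying hNpr1 and the pGS-40F cGMP biosensor. Stimulation uses hNppA at 0.1 nM final; luminescence is taken at baseline and 20 min post-agonist.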
# The depositor's hits bear a star; ? = inconclusive; & = joins results of further samples; [ ] = another dose, or the depositor's remark. On the % scale 0 is the no-effect control and ±100 the full control effect; potency means the concentration at half of the fitted maximal effect. An excerpt; rates above refer to the full screens.
SMILES,hNpr1 antagonist
CC(C)CCNC(=O)N1CC(C(=O)N(C)C)C2(CCOCC2)C1 (centres undefined),-1%
COc1ccc2nc3n(c2c1)[C@@H](CNC1CCN(C)CC1)COC3,2%[70.6 µM]
CCOC(=O)CCNC(=O)N1CCC[C@H](n2c(=O)n(CC3CC3)c3cccnc32)C1,-2%
O=C(Nc1ccc(C2(C(=O)NCc3ccc(F)cc3Cl)CCC2)cc1)C1CC1,1%
O=S(=O)(c1cccc(F)c1)N1CCC2(CC1)CC(Cc1nc(C3CC3)no1)CCO2 (centres undefined),11µM*
COc1ccnc(-c2nnc3ccc(N4CCN(C(=O)c5ccco5)CC4)nn23)c1,3%[70.6 µM]
Cc1ccc(N2Cc3c(ncnc3N3CCOCC3)N(C)CC2=O)cc1,1%
CCC(=O)Nc1ccc(C(=O)N2CCC3(CC2)CN(C)CCN3C)cc1,-7%
CN(C)c1nc2c(c(=O)[nH]1)CCN(Cc1ccc(F)c(Br)c1)CC2,-3%
COCc1nc(C2CC(N)C2)cc(N(C)Cc2noc3c2CCCC3)n1 (centres undefined),6%
Cc1cccc(CNC(=O)[C@H]2CCC[C@H]2NC(=O)c2ccncc2)c1,-7%
COc1ccc(-c2cnc3[nH]cc(CC(=O)NCc4cnccn4)c3c2)cc1,1%[70.6 µM]
COc1ccc(S(=O)(=O)N2CCc3c(C(=O)NC4CC4)cccc32)cc1,-8%
COCC(=O)N[C@@H](Cn1ccc(=O)[nH]c1=O)C(=O)O,5%[70.6 µM]
O=C(c1cccc(F)c1)N1CCC2(CC1)CC(OCC1CC1)CCO2 (centres undefined),-7%
COc1ccc(C(=O)N2CCC(c3nc(C4CCOCC4)no3)CC2)cn1,20%
Cc1ncoc1C(=O)NCC1Cn2cccc2C(=O)N1C (centres undefined),0%
COc1cc(NC(=O)N[C@H]2CO[C@H]3[C@@H]2OC[C@@H]3Nc2nccc(-c3ccc(-c4ccccc4)cc3)n2)cc(OC)c1,-1%
COCCOc1ccc2c(n1)CCN(C(=O)c1ccc(OC)cc1OC)C2,5%
N[C@@H](Cc1cnc[nH]1)C(=O)N1CCC2(CC1)Nc1ccccc1NC2=O,11%

# Molecules from the list above with a carbonyl joined to an NH by a bond outside any ring, in the order listed:
SMILES,hNpr1 antagonist
CC(C)CCNC(=O)N1CC(C(=O)N(C)C)C2(CCOCC2)C1 (centres undefined),-1%
CCOC(=O)CCNC(=O)N1CCC[C@H](n2c(=O)n(CC3CC3)c3cccnc32)C1,-2%
O=C(Nc1ccc(C2(C(=O)NCc3ccc(F)cc3Cl)CCC2)cc1)C1CC1,1%
CCC(=O)Nc1ccc(C(=O)N2CCC3(CC2)CN(C)CCN3C)cc1,-7%
Cc1cccc(CNC(=O)[C@H]2CCC[C@H]2NC(=O)c2ccncc2)c1,-7%
COc1ccc(-c2cnc3[nH]cc(CC(=O)NCc4cnccn4)c3c2)cc1,1%[70.6 µM]
COc1ccc(S(=O)(=O)N2CCc3c(C(=O)NC4CC4)cccc32)cc1,-8%
COCC(=O)N[C@@H](Cn1ccc(=O)[nH]c1=O)C(=O)O,5%[70.6 µM]
Cc1ncoc1C(=O)NCC1Cn2cccc2C(=O)N1C (centres undefined),0%
COc1cc(NC(=O)N[C@H]2CO[C@H]3[C@@H]2OC[C@@H]3Nc2nccc(-c3ccc(-c4ccccc4)cc3)n2)cc(OC)c1,-1%

# Next part.
SMILES,hNpr1 antagonist
Cc1ccc(C(=O)N[C@@H]2CN(c3ncccn3)C[C@H]2CO)cn1,-9%
COCCOC1CCN(C(C(=O)O)c2cc(C)c(OC)c(C)c2)CC1 (centres undefined),-2%
COC[C@@H]1CN(Cc2c(C)noc2C)C[C@H]1C(=O)NC1CC1,-1%
CC(C)Cc1cc(C[C@@H]2C[C@H](NC(=O)NC(C)C)C2(C)C)no1,-4%[70.6 µM]
COc1ccc(CN2C(=Nc3ccc(Cl)cc3)S[C@H]3[C@@H]2[C@@H](O)[C@H](O)C[C@@H]3C(N)=O)cc1,-1%
CC(=O)Nc1ccc(CN2CC[C@H](c3nnc(C)o3)C2)cc1,-1%[70.6 µM]
COc1cccc(CN[C@@H]2CCC[C@@H](C(=O)NCc3cc(C)on3)CC(=O)N(C)C2)c1,-1%[70.6 µM]
Cc1nc(N2CCC(NC(=O)c3cccs3)CC2)cc(C(F)(F)F)n1,-20%
Cc1ccc(C(=O)N2CCOc3ccc(CN4CCc5ccccc5C4)cc3C2)cn1,-4%
CCc1cn(C[C@H](NC(=O)c2ccco2)C(=O)O)c(=O)[nH]c1=O,0%[70.6 µM]
CC(=O)Nc1ccccc1-c1c(C)nn2c1N(CCCc1ccccc1)CCC2,?
Cc1noc(C)c1S(=O)(=O)N1CC(n2cc(C(=O)NCc3ccncc3)nn2)C1,4%
CNC(=O)CCn1ncc2cc(OC3CCc4cccc(-c5cccc(CO)c5)c43)ccc21 (centres undefined),-1%[70.6 µM]
COCCN1C(=O)CC[C@]2(C(=O)NCc3cccnc3)CCCC[C@@H]12,-2%
Cc1cnc(CNC(=O)CC2C(=O)NCCN2CCCc2ccccc2)cn1 (centres undefined),0%
O=C(CC1C(=O)NCCN1Cc1cccc(Oc2ccccc2)c1)NCc1ccoc1 (centres undefined),1%
O=C(c1ccc(=O)[nH]c1)N1C[C@@H](COCC2CC2)[C@H](c2ccncc2)C1,-2%
O=C1CCCCN1CC(=O)N1CCCC(CCc2ccc(F)cc2F)C1 (centres undefined),-8%
CC(C)N(C)Cc1ccc(-c2nc(-c3ccncc3)cc(=O)[nH]2)cc1,0%
COc1cccc(NC(=O)O[C@@H]2CC[C@]3(C)C(CC[C@@H](O)[C@H]3CC(=O)N3CC[C@H](NC(C)=O)C3)[C@]2(C)CO)c1 (some centres undefined),6%
COc1ccc(-c2cc(N3CCN(C(=O)c4c[nH]c5ccccc45)CC3)n[nH]2)cc1,0%
COc1ccc(C(=O)N2CC3CC(C2)[C@H]2CCCC(=O)N2C3)c(C)c1 (some centres undefined),-2%
CC(C)CCNC(=O)CCC1CCN(S(=O)(=O)c2cccc(F)c2)CC1,-4%
CC(C)(C)CCN1CCC(F)(c2nc(-c3ccccc3)no2)CC1,?
COc1ccccc1C(=O)Nc1cccc(C2OC(=O)N(Cc3ccc(C)cc3)C2C(N)=O)c1 (centres undefined),-4%
O=C(c1ccoc1)N1CCC2(CCCCO2)CC1,1%
Cn1ccc2c(C(=O)NCC3CCC(=O)N3)nc(-c3ccccc3)cc21 (centres undefined),-2%[70.6 µM]
CC(C)CNC(=O)N1CCCN(Cc2ccncc2)C(c2ccccc2)CC(=O)NCC1 (centres undefined),2%
CCc1nccn1CCCNc1nc(CCN)nc2ccccc12,1%
C=CCCC(CN1CCCC1)Oc1cncc(C(=O)N2CCCC2)n1 (centres undefined),18%
CN(C)C(C(=O)NCc1cc(F)c(F)c(F)c1F)c1cccc(F)c1 (centres undefined),1%
Cc1ncsc1CN1CCC(C(=O)N2CCCCCCNC(=O)CC2)CC1,1%
COCC1CN(C(C)=O)CC12CCN(C(=O)CSC)CC2 (centres undefined),-1%
COC1CCN(c2ncc(C(C)(C)C(=O)O)c(N3CCOCC3)n2)CC1,3%
O=C(CCNc1c(-c2cccc(F)c2)nc2cnccn12)NCc1ccccc1F,8%
Cc1cccc(S(=O)(=O)N2CCN(C3CCN(Cc4ccccn4)C3=O)CC2)c1 (centres undefined),-4%
OC(c1cccc(C(F)(F)F)c1)c1nc(Nc2ccncc2)n[nH]1 (centres undefined),-12%[70.6 µM]
Cc1cc(C)n2c(C(=O)N[C@@H]3COCC[C@@H]3OCc3ccccc3)nnc2n1,5%
O=C([C@@H]1C[C@H](Oc2cccnc2)CN1C(=O)Nc1ccccc1F)N1CCCC1,2%
Cc1nc([C@@H]2CN(S(=O)(=O)c3ccc4c(c3)CCCC4)C[C@H]2C(N)=O)n[nH]1,0%
CN(Cc1ccccc1)C(=O)C[C@@H]1c2nc(NC(=O)C3CCC3)sc2C[C@@H]2[C@](C)(CO)[C@H](O)CC[C@]21C,-22%
O=C(c1cccnc1)N1CC[C@H](c2nc3ccccc3o2)C1,6%[70.6 µM]
COc1cc(C(=O)NC2CCN(c3cc(-c4ccccc4)[nH]n3)CC2)cc(OC)c1OC,-3%
C=CCN1CC2(CCC1=O)CCN(C(=O)[C@H](N)c1ccccc1)CC2,2%
Cn1nc2n(c1=O)CCN(C(=O)c1cc(C3CC3)[nH]n1)CC2,5%
O=C([C@@H]1C[C@H](Oc2cccnc2)CN1)N1CCOCC1,-1%
Cc1c(CN2CCC(N(C(=O)NCCc3ccccc3)C3CCOCC3)CC2)cnn1C,2%
Cc1ccc(NC(=O)Cn2nc3n(c2=O)CCCCC3)cc1F,0%
Cc1nc(CN2CCOc3cc([S+](=O)([O-])N(C)C)ccc3C2)cs1,5%[70.6 µM]
Cc1oc2c(c1C(=O)NCc1cccnc1)CN(Cc1ccc(F)cc1)CC2,5%

# With a hit mark in hNpr1 antagonist, among the entries above:
SMILES,hNpr1 antagonist
O=S(=O)(c1cccc(F)c1)N1CCC2(CC1)CC(Cc1nc(C3CC3)no1)CCO2 (centres undefined),11µM*

# Other entries.
SMILES,hNpr1 antagonist
O=C(CC[C@H]1NC(=O)c2ccccc2NC1=O)NCCc1nc2ccccc2[nH]1,-6%
O=C(NCC1(Cn2cccn2)CC1)c1ccc(C2CCNC2)cc1 (centres undefined),2%
COc1ccc(CCNC(=O)c2cc[nH]c2C2CCCN(C(C)=O)C2)c(OC)c1 (centres undefined),13%
CCOC(=O)C1(Cc2ccccc2C(F)(F)F)CCN(C(C)Cc2cccc(C)n2)CC1 (centres undefined),?
O=C1NCCCCCCN[C@H]2C[C@H](c3nc(Cc4ccccc4)no3)C[C@@H]12,-7%
NC(=O)CN1CCCC(c2nc(-c3cn4ccccc4n3)no2)C1 (centres undefined),-2%
COc1cccc(NC(=O)Cn2c(C)cc3nc4n(c(=O)c32)CCCC4)c1,-15%
COc1ccc(N2Cc3c(NCCc4ccccn4)ncnc3N(C)CC2=O)cc1,17%
CCCCNC(=O)N1CC(C(=O)NCc2ccco2)CC(c2ccc(OC)c(OC)c2)C1 (centres undefined),5%
Cc1ccc(CNC(=O)N2CCC(c3noc(-c4ccccc4)n3)C2)cc1 (centres undefined),18µM*
CC(C)c1ccc(C(O)Cn2ccn3nc(-c4ccc(F)cc4)cc3c2=O)cc1 (centres undefined),0%
O=C([C@H]1C[C@H](Oc2cccnc2)CN1C(=O)Cc1ccccc1)N1CCOCC1,-14%
O=C(c1ccco1)N1CC(F)(F)C[C@H]1c1nc(-c2ncccn2)no1,2%
OCCC1CN(Cc2c(F)ccc(F)c2F)CCN1C1CCCC1 (centres undefined),6%
CC(=O)N(C)CCc1noc(C2CN(C(=O)COc3ccccc3)C2)n1,0%
O=C(c1cccnc1)N1CCC(OC2CCN(c3ccccc3)CC2)CC1,-5%
CNC(=O)[C@@H]1CN(C(=O)c2cc(F)ccc2F)C[C@H]1COC,0%
Oc1ccccc1CN1C[C@H](O)C[C@H]1c1nc(-c2ccc3c(c2)OCO3)no1,-3%[70.6 µM]
COCCN1C(=O)CC[C@]2(C(=O)N(C)CCc3ccncc3)CCCC[C@@H]12,1%
COc1ccc(-c2noc(-c3nnn4c3COC(c3ccc(OC)cc3)C4)n2)cc1 (centres undefined),-2%
O=C1NC(=NC2CCCC2)C2(CCN([S+](=O)([O-])c3cccc(C(F)(F)F)c3)C2)N1c1cccnc1 (centres undefined),37%[activator]
COCCN[C@H]1[C@@H]2OC[C@@H](O2)[C@@H](NC(=O)Nc2cccc(C#N)c2)[C@@H]1O,0%[70.6 µM]
COCCc1noc(C2CN(C(=O)C(C)C)C2)n1,1%
CCN(Cc1cnn(C)c1)C(=O)c1coc(COc2cccc(C(F)(F)F)c2)n1,4%
O=C(Nc1ccc(OC(F)(F)F)cc1)N1CC[C@H]2COC(=O)N2c2cc(F)ccc2C1,-1%
Cc1cn2nc(C(=O)N3CCC(C(=O)NC4CCCCCC4)CC3)cc2c(=O)[nH]1,-1%
Cc1ccccc1C(=O)N1CCC[C@H]1c1nc(-c2ccc(F)cc2)no1,-5%
O=C1CO[C@H]2CCN(Cc3ccc4c(c3)CCO4)CC[C@@H]2N1Cc1ccc(O)cc1,4%[70.6 µM]
COc1ccc(NC(=O)C2CCCN(c3cnn(Cc4ccccc4)c(=O)c3)C2)cc1OC (centres undefined),-15%
CCNC(=O)c1n[nH]c2c1CN(C(=O)c1ccc(OC(F)(F)F)cc1)CC2,1%
O=C(c1ccccn1)N1CCC(c2n[nH]c(=O)n2Cc2ccc(F)cc2)CC1,3%
COc1ccc(-c2cc3c(=O)n(CCNC(=O)c4cccc(OC)c4OC)ccn3n2)cc1,-15%
O=C(c1cccs1)N1CCC(N[C@H](c2ccccc2)C2CC(O)C2)CC1 (some centres undefined),3%
COc1cccc(Cn2c(Cc3c[nH]c4ccccc34)n[nH]c2=O)c1,2%
CN1CCC(Cc2ccc(C(=O)NCC3CCCCC3)cc2)CC1,-7%
CCC1c2nccn2CCCN1C(=O)COc1ccc(F)cc1 (centres undefined),-2%
CCC(=O)N1C[C@@H]2CCCN3CCC[C@@H]([C@H]23)[C@H]1CCCC(=O)NCC1CC1,0%
O=C(N[C@H]1[C@H]2CCO[C@H]2[C@@H]1N1CCCCC1)c1ccccc1-c1nn[nH]n1,-3%
O=C(Cc1ccc(N(Cc2ccccc2)C(=O)c2ccco2)cc1)NCc1ccco1,-3%
COCC(=O)N1C[C@@H](COc2cccnc2)[C@H](c2ccccn2)C1,-13%
O=C(Cn1nc2c(cc1=O)CCCCC2)NCCc1ccccn1,1%
COc1ccc(-n2nc(C3CCN(Cc4ccc(C)cc4)CC3)[nH]c2=O)cc1,-14%&-1%
COc1ccccc1-c1[nH]nc2ncc(-c3cccc(CO)c3)nc12,?
C[C@@H]1CN(C[C@@H]2CN(C(=O)C3CCC3)C[C@@H]2CO)C[C@H](C)O1,4%
O=C1CC(c2ccccc2)N(C(=O)NC2CCCCC2)CCCCCN1 (centres undefined),2%
